Compound activity from PubChem.
rRNA inh HTS = inhibitors of bacterial rRNA selective over humanized ribosomes. E. coli WT GFP vs humanized-ribosome RFP mutants, fluorescence, 24 h; stronger effect = lower value; DMSO median 0, no signal -100. 350,000 tested, 1.6% active. AID 720706. GFP signal change (wild-type ribosome), % (no concentration beside the values);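 active = significant combined selectivity score with lowered wild-type GFP, culture density cut under 30%, mutant RFP and density less affected; inactive = any of these conditions unmet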; note: one replicate is shown; some compounds called inactive have numbers as strong as hits
T cruzi repl = blocks replication of Trypanosoma cruzi. inhibition, % (no concentration beside the values). 300,000 tested, 1.4% active. T. cruzi beta-gal in NIH3T3, luminescence, 90 h;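 active = mean inhibition across valid replicates above about 55%, limit read from the data; inconclusive = mean below that limit but half or more replicates reach it; inactive = mean below it, under half of replicates reach it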;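 note: signal also drops with host cell toxicity which is not excluded here; 0% = plate median of DMSO wells and 100% = zero luminescence signal; higher percent means less beta-gal luminescence so fewer parasites; stock transfer was 50 nL into about 50 µL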
Beta cell apopt = beta cell apoptosis inhibition. INS-1E cytokine-induced death, ATP luminescence, 48 h; percent of positive-control rescue, neutral wells zero. protection from apoptosis, % (no concentration beside the values). AID 435005. 300,000 tested, 0.8% active;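 active = all replicates at 75% or more, or half of them and the mean; inconclusive = half reach 75% but not the mean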;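 note: 0% = cytokine-treated negative control wells and 100% = positive control rescue; higher means more ATP so stronger rescue from cytokine killing; wells of about 40 µL received 100 nL stock; the first replicate is given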
ALR inh = inhibitors of human sulfhydryl oxidase ALR. P55789. purified ALR, DTT oxidation, H2O2 HRP-luminol luminescence. inhibition, % (test concentration not listed). 290,000 tested, 3.8% active;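 active = mean and each replicate at 75% or more; inconclusive = only one of the two met; inactive = neither met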;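 note: stock transfer was 7.5 nL into about 7.5 µL; 0% = neutral wells and 100% = wells with inactivated enzyme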
Target sequence (P55789 whole entry, looked up): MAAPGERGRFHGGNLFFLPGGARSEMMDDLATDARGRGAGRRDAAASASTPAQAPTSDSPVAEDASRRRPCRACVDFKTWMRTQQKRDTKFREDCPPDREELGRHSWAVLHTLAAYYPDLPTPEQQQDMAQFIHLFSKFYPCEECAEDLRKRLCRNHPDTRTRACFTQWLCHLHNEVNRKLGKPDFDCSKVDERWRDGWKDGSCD
AF4-AF9 inh = MLL-AF4/AF9 protein interaction inhibition | inhibition, % at 10 µM | P42568 | 350,000 tested, 0.47% active | AlphaScreen, biotin-AF4 peptide binding to FLAG-AF9;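 active = every replicate reaching a set inhibition limit, whatever the replicate mean, cut at about 25% in these data; inconclusive = mean inhibition reaches that limit but some replicates miss it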;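 note: 0% = plate neutral control median and 100% = total signal loss; the record names both 10 and 1 µM as test concentration; the first replicate is given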
Target sequence (P42568 whole entry, looked up): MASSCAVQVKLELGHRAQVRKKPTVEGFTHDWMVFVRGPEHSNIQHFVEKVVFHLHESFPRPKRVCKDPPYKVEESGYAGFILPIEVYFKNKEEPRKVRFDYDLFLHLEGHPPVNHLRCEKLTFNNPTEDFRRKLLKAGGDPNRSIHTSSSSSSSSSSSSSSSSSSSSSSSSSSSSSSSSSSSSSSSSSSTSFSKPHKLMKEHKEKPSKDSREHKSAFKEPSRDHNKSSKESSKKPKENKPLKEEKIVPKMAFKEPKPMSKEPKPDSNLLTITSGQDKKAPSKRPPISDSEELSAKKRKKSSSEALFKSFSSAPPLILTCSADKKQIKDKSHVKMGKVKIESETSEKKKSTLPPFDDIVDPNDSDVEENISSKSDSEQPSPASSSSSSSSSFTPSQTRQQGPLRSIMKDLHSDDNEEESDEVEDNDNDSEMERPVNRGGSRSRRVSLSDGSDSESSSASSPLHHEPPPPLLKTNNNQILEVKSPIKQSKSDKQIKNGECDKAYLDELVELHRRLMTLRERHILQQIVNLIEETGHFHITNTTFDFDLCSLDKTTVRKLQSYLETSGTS
RanGTP-Imp inh = inhibitors of RanGTP-importin-beta interaction, primary screen, biochemical, FRET, CFP-Ran, YFP-importin-beta, homogeneous | inhibition, % (concentration not given with the values) | AID 2216 | cell-free CFP-Ran/YFP-importin-beta FRET ratio | 300,000 tested, 1.1% active;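 active = most replicates above 15%; inconclusive = exactly half above 15%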;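 note: 0% = DMSO wells and 100% = Ran loaded with GDP instead of GTP; wells of about 40 µL received 100 nL stock; the first replicate is given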
Calb FLC = affects C. albicans growth with fluconazole | C. albicans CaCi-2 (fluconazole-resistant clinical isolate) + fluconazole, Alamar Blue growth, 48 h | growth inhibition, % (concentration not given with the values) | 300,000 tested, 0.57% active | AID 1979;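 active = most replicates above 75%; inconclusive = exactly half above 75%; inactive = most below 75%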;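 note: all wells also contain fluconazole at 8 µg/ml as a sub-toxic cotreatment; 0% = median of DMSO wells and 100% = median of geldanamycin control wells; wells of about 8 µL received 7.5 nL stock; the first replicate is given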
FGF22 binding = FGF22 (human) thermal shift binding. Q9HCT0. recombinant FGF22 thermal shift, SYPRO orange fluorescence; percent of sucrose octasulfate shift, DMSO zero. calls only at 9.99 µM. 340,000 tested, 1.5% active. AID 651658;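 active = melting point raised past a set limit in the mean and every replicate; inconclusive = no clear call; three in four hits are not shown here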
Target sequence (Q9HCT0 whole entry, looked up): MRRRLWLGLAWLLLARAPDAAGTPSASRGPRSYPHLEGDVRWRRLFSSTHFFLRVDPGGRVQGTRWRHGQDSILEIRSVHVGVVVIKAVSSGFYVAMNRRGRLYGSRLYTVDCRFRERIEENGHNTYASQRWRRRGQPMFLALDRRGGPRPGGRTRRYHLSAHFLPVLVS
rRNA inh HTS OD600 = recorded beside rRNA inh HTS, whose call it bears; OD600 change, %; measured here: OD600 growth;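 optical density of the mix in the first replicate; 0 = DMSO median and -100 = no signal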
rRNA inh HTS RFP = second read-out of rRNA inh HTS, no call of its own (marks repeat the call); RFP signal change, %; measured here: RFP humanized mutant strains;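 first replicate; 0 = DMSO median and -100 = no signal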
* = called active by the depositor; i = inactive; ? = inconclusive; . = not tested or not shown.

SMILES	rRNA inh HTS	rRNA inh HTS OD600	rRNA inh HTS RFP	T cruzi repl	Beta cell apopt	ALR inh	AF4-AF9 inh	RanGTP-Imp inh	Calb FLC	FGF22 binding
CN1CCC(O)(c2ccc(Cl)cc2)C(C(=O)c2ccc(Cl)cc2)C1 (configuration not stated)	-6	-7	0.6	49	-3	5	3.0	-5.1	-18	i
CC(=O)N1CCC2(CC1)CC(=O)c1cc(OCC(=O)N3CCC4(CC3)OCCO4)ccc1O2	6	4	1.2	-1	-4	-1	-2.6	-0.2	5	i
Cc1cccc(CN2CCN(C(=O)Cc3ccccc3)CC2)c1	14	4	4.7	5	0	-9	1.8	1.6	1	i
COc1ccc(-n2c(/C=C/c3ccc(O)c(OC)c3)nc3ccccc3c2=O)cc1	-17	-21	-0.7	-7	17	12	3.7	6.0	8	i
O=C(Nc1ccc(C(F)(F)F)cc1)c1cccn(Cc2ccc3c(c2)OC(F)(F)O3)c1=O	.	.	.	8	-2	-8	.	3.4	29	.
O=c1[nH]c(=O)n(Cc2ccco2)c(O)c1/C=N/N1CCCCCC1	4	3	-2.4	-7	-2	-2	3.8	-2.2	27	i
CC(NC1CCCCC1)C(O)C12CC3CC(CC(C3)C1)C2 (configuration not stated)	.	.	.	31	-11	0	.	-2.8	22	.
O=C(Nc1cccc2ccccc12)N1CCC2(CC1)OCCO2	-23	-19	-5.8	-13	-2	-59	-2.3	-5.3	-12	i
CCCNc1oc(-c2cccc3ccccc23)nc1C#N	.	.	.	37	-2	4	.	8.3	-3	.
CCCN(CC1CC1)CC(O)c1ccccc1 (configuration not stated)	4	1	-6.3	-6	-8	-5	7.7	-1.6	.	i
O=C1NC(=O)N(Cc2ccccc2)C(=O)/C1=C\N1CCCc2ccccc21	.	.	.	-20	-7	.	.	27*	-14	.
O=C(Cc1ccccc1)N1CCN(C2CCCCCC2)CC1	3	6	-0.1	0	-5	-5	-0.3	0.9	-12	i
O=C(O)Cn1cc(C(=O)c2ccccc2)c2ccccc21	.	.	.	-19	-2	-6	.	0.2	-11	.
O=P(Nc1ccccc1)(Nc1ccccc1)Oc1cccc(Cl)c1	-57	-76	-13	-16	11	-2	.	?	-9	.
CCOC(=O)C1(CCc2ccccc2)CCN(Cc2cccc3cnccc23)CC1	-54	-79	-30	25	10	-3	0.8	-0.4	-3	i

Taken from above.
Calb FLC result of `O=C(Cc1ccccc1)N1CCN(C2CCCCCC2)CC1` stands at -12
RanGTP-Imp inh result of `O=C(Nc1ccc(C(F)(F)F)cc1)c1cccn(Cc2ccc3c(c2)OC(F)(F)O3)c1=O` stands at 3.4
rRNA inh HTS result of `COc1ccc(-n2c(/C=C/c3ccc(O)c(OC)c3)nc3ccccc3c2=O)cc1` stands at -17

Other compounds follow:
SMILES	rRNA inh HTS	rRNA inh HTS OD600	rRNA inh HTS RFP	T cruzi repl	Beta cell apopt	ALR inh	AF4-AF9 inh	RanGTP-Imp inh	Calb FLC	FGF22 binding
Cc1ccccc1-n1c(C)nc2ccsc2c1=O	15	9	-1.7	-22	.	-2	2.1	-2.2	-10	.
Cc1ccc2c(c1)C1CN(C)CCC1N2C(=O)Nc1cccc(C(F)(F)F)c1 (configuration not stated)	.	.	.	29	0	-7	.	1.2	2	.
CCc1ccc(CN2CCN(C(=O)Cc3ccccc3)CC2)cc1	-18	-23	-6.4	43	10	-10	1.0	-2.8	-3	i
Cc1cc(C)cc(NC(=O)CCNC(=O)N2C[C@H]3C[C@@H](C2)c2cccc(=O)n2C3)c1	.	.	.	1	.	1	-3.5	-1.0	2	i
CC(=O)c1ccc(-c2ccccc2)cc1	.	.	.	-3	2	-12	-4.7	-2.9	-30	i
C=C(CO)CC1CC(O)[C@]2(C)OC3CC4OC5C[C@]6(C)O[C@]7(C)CCC8OC9C[C@]%10(C)OC%11C(C)=CC(=O)OC%11CC%10OC9C[C@@H](C)C8OC7CC6O[C@]5(C)C/C=C\C4OC3CC2O1 (some centres not stated)	22	23	-1.3	11	22	.	-6.8	-4.9	6	i
O=C(CCl)Nc1nccs1	7	-1	0.5	-5	0	-16	4.9	1.8	-4	i
O=C(c1cc2c(s1)CCCCCC2)N1CCC2(CC1)OCCO2	.	.	.	14	-10	0	.	-1.0	47	.
O=C(C[n+]1ccn(CCCNP2(=O)C=C(c3ccccc3)OC(c3ccccc3)=C2)c1)c1ccccc1	-49	-61	51	-9	-4	-11	3.5	?	-12	i
CCOC(=O)c1sc(/N=C/c2c(O)n(-c3ccccc3)c(=O)[nH]c2=O)c(C#N)c1C	.	.	.	-13	-8	15	.	0.3	-4	.
COCCNC(=O)CN1C(=O)C(C)N=C(c2ccccc2)c2cc(Cl)ccc21 (configuration not stated)	7	7	-8.6	2	-7	5	1.1	7.8	0	i
Cn1c(O)c(/C=C2\N=c3ccccc3=C2CCNC(=S)NC2CC2)c(=O)n(C)c1=O	-2	2	5.9	-9	.	-6	13	2.7	5	i
O=C1NC(=O)N(c2ccccc2F)C(=O)/C1=C/c1cn(CC(=O)N2CCOCC2)c2ccccc12	17	12	-0.4	4	-7	17	1.3	4.3	-3	i
COc1cccc(CN2CCN(C(=O)Cc3ccccc3OC)CC2)c1	-2	-2	0.2	-5	5	-4	5.2	1.6	-6	i
CCOc1cc(CNCCc2cccc(F)c2)ccc1OC	11	18	7.4	40	3	-10	1.2	?	-5	i
C(#CCN1CCOCC1)COCC#Cc1ccccc1	.	.	.	1	-6	-2	.	-0.9	3	.
O=C1NC(=O)C(CCc2ccncc2)(Cc2ccc(OCc3ccccc3)cc2)C(=O)N1	3	1	-0.4	-17	-13	-8	-0.4	-2.8	0	i
ClC1=C(Cl)C2(Cl)C3C(Cl)C=CC3C1(Cl)C2(Cl)Cl (configuration not stated)	-3	-2	1.8	.	-1	1	.	.	.	i
O=C(NC1CCCCC1)[C@@H]1CC=C[C@@H]2CCN(Cc3ccccc3)C(=O)[C@@H]21	6	-4	-5.5	-6	-6	-18	.	-0.4	-7	i
COC(=O)c1ccccc1N=Cc1c(O)[nH]c(=S)[nH]c1=O	15	13	1.1	-4	-6	-2	-1.5	2.3	63	i
CC1(C)C(=O)C=C[C@]2(C)[C@H]3CC[C@@]4(C)[C@H](c5ccoc5)OC(=O)[C@H]5O[C@]54[C@]3(C)[C@H](O)C[C@@H]12	.	.	.	13	0	-4	.	4.1	-10	.
O=C1NC(=O)C(=Cc2cccc(OCCOc3ccccc3)c2)C(=O)N1	14	-2	2.5	-3	-4	11	-5.1	0.2	11	i
CC1CC2(O)c3no[n+]([O-])c3CCC2N1O (configuration not stated)	.	.	.	-8	-5	-3	.	-2.2	-6	.
CCN1CCN(S(=O)(=O)c2ccc(Cl)c(C(=O)Nc3ccc(C(=O)N(CC)CC)cc3)c2)CC1	10	10	1.8	-15	8	-2	-0.3	?	3	i
Cc1cc(C=C(C#N)C#N)ccc1N1CCCC1	0	5	23	-15	-9	.	2.6	31*	31	i
CCN(CC)c1ccc(C=C2C(=O)NC(=S)NC2=O)cc1	14	22	6.3	-6	-8	99*	1.2	-4.3	9	i
CC1Oc2cc3c(-c4c(O)cc(O)c5c(O)c6c(cc45)OC(C)C(C)C6=O)c(O)cc(O)c3c(O)c2C(=O)C1C (configuration not stated)	.	.	.	-48	109*	-24	.	-1.0	-12	.
OC1(c2ccc(F)cc2)CC2CCC(C1)N2Cc1nnnn1C1CCCCC1 (configuration not stated)	-6	1	1.6	12	1	-2	?	-1.5	-2	i
COC(=O)C1=C(c2ccc(S(C)(=O)=O)cc2)C[C@@H]2CC[C@H]1N2C(=O)NC1CC1	1	6	-1.6	-14	-17	8	0.7	?	-4	i
O=[N+]([O-])c1ccc(N2CCCC2)c2ccncc12	16	-4	21	-2	2	-43	3.7	-4.3	?	i
CCN(CC)CCCN=C(C)c1c(O)n(C2CCCCC2)c(=O)[nH]c1=O	.	.	.	65*	-3	-7	.	1.4	-1	.
COC(=O)C1=C(c2ccccc2OCc2ccccc2)C[C@@H]2CC[C@H]1N2C(=O)NCc1ccc(N(C)C)cc1	4	2	-2.7	.	-5	2	25	.	.	i
CC(C)CN(C(=O)CN1CC=C(c2ccccc2)CC1)c1c(N)n(CC(C)C)c(=O)[nH]c1=O	6	10	0.4	0	-2	-4	-1.0	?	19	i
O=C(CCl)NCC1CCCO1 (configuration not stated)	-1	-1	-4.6	-21	-9	.	-0.5	2.6	2	i
Cn1cc(C=C(C#N)C#N)c2ccccc21	31	13	-1.7	-15	4	-16	-1.6	-33	-4	i
C=CCn1c(O)c(C(C)=NCCc2c[nH]c3ccccc23)c(=O)[nH]c1=O	11	3	-1.3	7	2	6	-0.1	1.2	3	i
OC(COCc1ccc(Cl)cc1)CN1CC=C(c2ccccc2)CC1 (configuration not stated)	-31	-10	14	22	-4	-6	-5.6	1.1	-15	i
CC(C)[C@H]1CC2C3CC=C4C[C@@H](O)CC[C@]4(C)C3CC[C@]2(C)[C@H]1O (some centres not stated)	-9	-22	1.5	.	5	1	0.7	.	.	.
Cc1ccc(N2C(=O)NC(=O)/C(=C/c3cnc(-c4ccccc4)nc3)C2=O)cc1C	8	7	-8.9	-7	-4	8	1.4	-0.7	3	i
CCCCC(CC)CNCC(O)c1ccccc1 (configuration not stated)	7	-3	0.9	78*	5	0	0.0	-1.3	-2	i
COc1cc(OC)c(C=O)c(OC(=O)N(C)C)c1	8	1	1.5	-8	-7	-14	-1.2	-0.1	31	i
O=P(O)(Oc1ccccc1)OC(c1ccccc1)C(F)(F)C(F)(F)F (configuration not stated)	8	6	2.7	-10	-1	0	-0.6	-0.1	11	i
Cc1ccc(P(=S)(c2ccc(C)o2)N2CCOCC2)o1	.	.	.	-21	2	19	.	8.0	14	.
CN1CCCCC1c1ccc(-c2cccnc2)nc1 (configuration not stated)	.	.	.	-8	.	-1	1.4	?	-2	i
CN1CCN(CCC(=O)OC2CC3CCC(C2)N3C)CC1 (configuration not stated)	.	.	.	3	-3	-6	.	0.4	13	.
COC(=O)C1=C(c2ccc(Cl)c(C(F)(F)F)c2)C[C@@H]2CC[C@H]1N2C(=O)N1CCC(O)(c2ccc(Cl)cc2)CC1	7	0	-5.3	.	5	-1	-5.8	.	.	i
Cc1cc(OCCCC(=O)NCc2cccs2)ccc1Cl	-41	-54	-9.0	0	-3	-23	-1.8	5.0	7	i
Oc1cccc(/C=N/NP(=S)(c2ccccc2)c2ccccc2)c1	.	.	.	2	-15	.	.	6.0	13	.
CCOc1ccc(N=Cc2c(O)n(CCc3ccc(OC)c(OC)c3)c(=O)[nH]c2=O)cc1	11	10	2.9	22	-1	.	-0.7	0.8	28	i

Some of the compounds tested, so the mix of outcomes need not match the whole.
